From PubChem
HNF4A DNA FP: change in binding of human HNF4 alpha to DNA; HNF4a-FITC DNA binding, fluorescence polarization, 1 h; P41235; AID 1224865; 360,000 tested, 0.3% active; activity change, % at 10 µM; in the data active means activity change above about 30%, passing the limit was not always enough;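 further: controls were the assay level and a saturating level of protein; the project sought stronger binding though the title names inhibitors; some compounds called inactive have numbers as strong as hits; positive values seem to mean higher polarization but the record does not say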
Vif A3G: inhibitors of Vif binding to APOBEC3G peptide, primary screen, biochemical, TR-FRET, GST-Vif 1-94, biotin-A3G peptide, dose response retest (AID 1117319); TR-FRET GST-Vif / biotin-A3G peptide binding; higher % means a stronger effect; test concentration not given here; strong numbers were not always called active; inhibition, %; hits with a dose series show IC50 in µM; 260,000 tested, 0.57% active;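 active means above the screen mean plus three standard deviations and confirmed in dose response; inconclusive means results disagree or hit not tested in dose response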;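 further: Vif residues 1-94 fused to GST binding biotinylated APOBEC3G peptide 110-148; 0% = full assay without inhibitor and 100% = GST in place of GST-Vif; retest series ran down from 100 µM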
MLL AF4-AF9 inh: blocks AF4 peptide binding to human AF9. P42568. AlphaScreen, biotin-AF4 peptide binding to FLAG-AF9. inhibition, % at 10 µM. 350,000 tested, 0.47% active;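 active means every replicate reaching a set inhibition limit, whatever the replicate mean, cut at about 25% in these data; inconclusive means mean inhibition reaches that limit but some replicates miss it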;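 further: 0% = plate neutral control median and 100% = total signal loss; the record names both 10 and 1 µM as test concentration; the first replicate is given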
Target sequence (P42568 whole entry, looked up): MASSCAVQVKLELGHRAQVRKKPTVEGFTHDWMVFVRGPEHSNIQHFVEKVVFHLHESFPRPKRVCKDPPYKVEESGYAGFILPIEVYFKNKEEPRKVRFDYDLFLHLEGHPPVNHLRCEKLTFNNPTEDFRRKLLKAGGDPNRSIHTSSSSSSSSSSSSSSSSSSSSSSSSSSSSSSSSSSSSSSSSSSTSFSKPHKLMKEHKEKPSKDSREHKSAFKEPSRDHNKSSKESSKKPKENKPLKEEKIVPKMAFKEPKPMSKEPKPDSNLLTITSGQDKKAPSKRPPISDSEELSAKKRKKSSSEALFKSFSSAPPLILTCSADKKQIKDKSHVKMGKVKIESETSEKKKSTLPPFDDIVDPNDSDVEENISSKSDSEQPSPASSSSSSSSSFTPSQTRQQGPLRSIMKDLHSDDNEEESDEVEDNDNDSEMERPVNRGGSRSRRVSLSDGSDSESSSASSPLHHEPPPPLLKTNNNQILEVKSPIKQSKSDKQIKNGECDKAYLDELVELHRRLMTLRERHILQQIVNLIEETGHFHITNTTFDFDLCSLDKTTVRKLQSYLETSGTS
E coli growth: E. coli growth inhibition; AID 1053175; OD600 absorbance (concentration not given with the values); 330,000 tested, 0.21% active; Escherichia coli growth, OD600, 23 h; stronger effect = lower value;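 active means OD600 absorbance below the run mean of sample wells minus 3.6 SD, in any replicate, cut at about 0.56 in these data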;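 further: stock transfer was 300 nL into about 60 µL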
ALR inh: human ALR oxidase inhibition via reduced H2O2; 290,000 tested, 3.8% active; inhibition, % (test concentration not listed); P55789; purified ALR, DTT oxidation, H2O2 HRP-luminol luminescence;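 active means mean and each replicate at 75% or more; inconclusive means only one of the two met; inactive means neither met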;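 further: stock transfer was 7.5 nL into about 7.5 µL; 0% = neutral wells and 100% = wells with inactivated enzyme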
Target sequence (P55789 whole entry, looked up): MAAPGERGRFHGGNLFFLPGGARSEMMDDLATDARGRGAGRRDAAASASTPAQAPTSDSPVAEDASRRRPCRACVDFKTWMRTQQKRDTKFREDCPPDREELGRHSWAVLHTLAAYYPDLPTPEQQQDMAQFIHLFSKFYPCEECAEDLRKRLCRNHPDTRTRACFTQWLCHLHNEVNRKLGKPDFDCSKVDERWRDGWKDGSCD
Ecoli rRNA inh: inhibits bacterial ribosomal RNA function over humanized ribosomes; E. coli WT GFP vs humanized-ribosome RFP mutants, fluorescence, 24 h; stronger effect = lower value; DMSO median 0, no signal -100; GFP signal change (wild-type ribosome), % (no concentration beside the values); 350,000 tested, 1.6% active;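 active means significant combined selectivity score with lowered wild-type GFP, culture density cut under 30%, mutant RFP and density less affected; inactive means any of these conditions unmet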; further: one replicate is shown; some compounds called inactive have numbers as strong as hits
FGF22 binding: binders of recombinant human FGF22 by thermal shift | Q9HCT0 | SYPRO orange fluorescence; percent of sucrose octasulfate shift, DMSO zero | calls only at 9.99 µM | 340,000 tested, 1.5% active | AID 651658;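 active means melting point raised past a set limit in the mean and every replicate; inconclusive means no clear call; three in four hits are not shown here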
Target sequence (Q9HCT0 whole entry, looked up): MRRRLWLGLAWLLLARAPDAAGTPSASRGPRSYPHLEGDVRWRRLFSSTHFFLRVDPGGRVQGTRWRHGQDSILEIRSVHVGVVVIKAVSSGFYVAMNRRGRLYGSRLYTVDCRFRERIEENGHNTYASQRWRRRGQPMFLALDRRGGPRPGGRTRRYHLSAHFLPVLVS
Ecoli rRNA inh OD600: second read-out of Ecoli rRNA inh, no call of its own (marks repeat the call); OD600 change, %; measured here: OD600 growth;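 optical density of the mix in the first replicate; 0 = DMSO median and -100 = no signal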
Ecoli rRNA inh RFP: further read-out of Ecoli rRNA inh, marked with its call; RFP signal change, %; measured here: RFP humanized mutant strains;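 first replicate; 0 = DMSO median and -100 = no signal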
* = called active by the depositor; i = inactive; ? = inconclusive; · = not tested or not shown; ! = a repeat was not active. The list is partial; count on the stated rates, not on these rows.

SMILES	HNF4A DNA FP	Vif A3G	MLL AF4-AF9 inh	E coli growth	ALR inh	Ecoli rRNA inh	Ecoli rRNA inh OD600	Ecoli rRNA inh RFP	FGF22 binding
CC=Cc1ccc2n(c1=O)C[C@@H]1[C@@H](CO)[C@H](C(=O)NCc3ccc4c(c3)OCO4)[C@H]2N1C(C)=O (mixture of isomers)	·	·	-2.6	·	·	-2	-2	-2.4	i
C[C@H](CO)N1C[C@H](C)[C@H](CN(C)Cc2ccc(C(F)(F)F)cc2)Oc2ccc(NS(=O)(=O)c3cccs3)cc2C1=O	·	·	3.3	·	·	-32	-65	11	i
CCCC#Cc1cnc2c(c1)C(=O)N([C@@H](C)CO)C[C@H](C)[C@@H](CN(C)C(=O)Cc1ccccc1)O2	·	·	-0.7	·	·	-3	1	1.5	i
Cc1ccc(NC(=O)N2CCN(Cc3ccc4c(c3)OCO4)CC2)cc1	5.1	-1%	·	0.61	-5	·	·	·	·
O=C(COc1ccc2c(c1)oc(=O)c1ccccc12)N[C@@H](Cc1ccccc1)C(=O)O	-1.4	·	1.6	0.72	-3	·	·	·	i
Cc1ccc(Cn2nnc3c(=O)n(CC(=O)c4ccccc4)cnc32)cc1	-0.1	0%	7.6	0.67	7	-5	-3	0.4	i
COc1ccc(NS(=O)(=O)c2csc(C(N)=O)c2)cc1	1.1	-3%	1.1	0.69	-1	15	13	0.3	i
CC1CCN(C(=O)CSc2nc(=O)n3cc(Cl)ccc3n2)CC1	4.8	0%	-3.2	0.69	-11	-2	7	-4.0	i
C=CCOc1nc2c(c(=O)n(C)c(=O)n2C)n1Cc1ccc(Cl)cc1Cl	-4.1	13%	-33	0.74	-1	15	9	-0.4	i
COc1ccc(NC(=O)CN2C(=O)NC(C)(C3CC3)C2=O)cc1S(=O)(=O)N1CCOCC1 (stereo not drawn)	2.1	17%	2.2	0.7	-4	8	15	-2.3	i
Cc1cccc(Oc2coc3cc(OC(=O)c4cc5ccccc5oc4=O)ccc3c2=O)c1	-3.8	7%	·	0.67	·	·	·	·	·
O=C(NC1CC1)C1CCN(C(=O)c2ccc(Cl)cc2)CC1	-2.3	·	0.5	0.68	1	-1	0	-0.4	·
CCN(CC)S(=O)(=O)c1ccc(NC(=O)c2ccc(Cl)nc2)cc1	2.1	14%	-1.4	0.65	·	-11	-5	0.6	·
Cc1ccc(S(=O)(=O)Nc2ccc3c(c2)CC(=O)N([C@@H](C)CO)C[C@@H](C)[C@@H](CN(C)Cc2ccc(Oc4ccccc4)cc2)O3)cc1	·	·	-1.4	·	·	2	1	0.2	i
Cc1ccc(S(=O)(=O)N(C)C[C@@H]2Oc3ccc(NC(=O)c4ccncc4)cc3C(=O)N([C@H](C)CO)C[C@@H]2C)cc1	·	·	-0.4	·	·	-3	4	-0.8	i
Clc1ccc2nc(CN3CCCc4ccccc43)cn2c1	3.9	27%	19	0.64	·	-20*!	4.4*!	3.8*!	i
COc1ccccc1NC(=O)c1ccc(NC(=O)C2CC2)cc1	-0.1	·	-5.3	·	·	-12	-5	4.0	i
N/C(=N\OC(=O)c1ccc(=O)n(Cc2ccc(Cl)cc2)c1)c1ccccn1	0.0	-8%	2.1	0.69	45	-9	-9	2.6	i
COc1ccc(OC(=O)CCN2C(=O)C3C4C=CC(C4)C3C2=O)cc1 (stereo not drawn)	-0.2	-4%	-4.5	0.68	-7	18	8	3.9	i
CCc1nnc(NC(=O)C2CC(=O)N(c3ccc4c(c3)OCCO4)C2)s1 (stereo not drawn)	-4.1	12%	2.8	0.71	-5	14	13	-0.9	i
Cc1ccc(Cn2nc(C)c3cc(C(=O)OCC(N)=O)sc32)cc1	0.2	-6%	·	0.74	0	·	·	·	·
O=C1c2ccccc2C(O)N1Cc1ccccc1 (stereo not drawn)	-1.2	-1%	-3.9	0.62	-10	-13	-16	-5.4	i
CC(=O)c1nn(-c2cccc(C)c2)cc1C(=O)c1cccc(Br)c1	-1.4	·	1.6	0.69	-15	32	28	2.7	i
CCc1ccc(C(O)c2ncc(-c3ccccc3Cl)[nH]2)cc1 (stereo not drawn)	3.6	·	1.6	·	·	-14	-43	-3.6	i
Cc1cccc(C)c1NC(=O)CSCCO	1.7	3%	-3.9	0.68	-5	1	2	3.3	i
Cc1cc(NC(=O)CSCC(=O)Nc2cc(C(F)(F)F)ccc2N2CCCC2)no1	0.1	-7%	-4.9	0.69	-15	1	10	-1.5	i
COc1ccc(COc2ccccc2C(=O)NCc2ccccc2)cc1F	4.3	22%	·	0.7	-1	·	·	·	·
COc1ccc2c3c([nH]c2c1)[C@@H](CO)N(C(=O)C1CC1)CC31CCN(C(=O)NC(C)C)CC1	·	·	-2.5	·	·	-1	-2	1.8	i
CCS(=O)(=O)N1CCN(C2Cc3ccccc3C2)CC1	-5.0	14%	·	0.68	-2	·	·	·	·
CC(C)NC(=O)Nc1cccc2c1O[C@H](CN(C)C(=O)NC1CCCCC1)[C@H](C)CN([C@@H](C)CO)C2=O	·	·	3.2	·	·	-1	8	-1.2	i
COc1ccccc1OCCSc1nc(N)cc(N)n1	-5.5	4%	·	0.66	·	·	·	·	·
CC(=O)Nc1ccc(S(=O)(=O)NCCSCc2ccco2)cc1	0.3	15µM*	1.7	0.65	-29	2	2	-2.8	i
O=C(O)CSCC(=O)Nc1ccc(C2CCCCC2)cc1	3.6	3%	·	0.64	98*	·	·	·	·
O=C(NCCCN1CCCC1=O)C1CCN(S(=O)(=O)c2cccc(Cl)c2Cl)CC1	-5.4	0%	-3.9	0.69	-1	5	7	1.6	i
Cn1cnc(S(=O)(=O)N[C@@H]2C=C[C@@H](CC(=O)NCC3CC3)O[C@@H]2CO)c1	·	·	-1.1	·	·	4	4	-0.7	i
CCN(C(=O)Cn1cc(C(=O)C(=O)N2CCOCC2)c2ccccc21)c1ccccc1	-0.3	·	-7.9	0.66	-2	2	8	0.5	i
COc1ccc(NC(=O)COC(=O)c2ncc(Cl)c(Cl)c2Cl)c(OC)c1	-0.7	18%	·	0.68	7	·	·	·	·
Cc1ccc(/C(O)=C2\C(=O)C(=O)N(c3cc(C)on3)C2c2cccc(Br)c2)cc1 (stereo not drawn)	0.2	0%	·	·	21	·	·	·	·
C[C@H]1CN([C@@H](C)CO)C(=O)c2cc(C3=CCCC3)cnc2O[C@@H]1CN(C)Cc1cccc(F)c1	·	·	7.1	·	·	-6	-7	4.2	i
O=C(Cc1ccccc1)Nc1cc([N+](=O)[O-])ccc1N1CCOCC1	2.0	?	-0.1	0.71	·	1	-2	1.8	·
CN=c1sc(C(=O)Nc2ccccc2)c(C)n1C	-0.8	-2%	-1.6	0.68	-4	19	11	1.4	i
C=CCn1c(SCC(=O)NC2CCCCC2)nnc1-c1ccccn1	-0.1	·	-1.9	0.69	-8	2	5	1.6	i
COc1cc(CCC(=O)N2CCN(c3cccc(C)c3C)CC2)cc(OC)c1OC	1.0	-2%	0.9	0.69	1	-4	-21	2.6	i
Cc1ccc(C)c(NC(=S)N2CCN(Cc3ccccc3)CC2)c1	1.2	-3%	2.6	0.7	-7	16	-2	6.0	i
O=C(N[C@@H]1CC[C@H](CCNS(=O)(=O)c2ccc(F)cc2)O[C@@H]1CO)c1cnccn1	·	·	-1.7	·	·	3	2	1.6	i
Cc1ccc2nc(SCC(=O)Nc3ccccc3F)nc(=O)n2c1	0.1	-8%	-2.4	0.7	-13	5	8	-0.8	i
Cc1[nH]c(C)c(S(=O)(=O)Nc2ccc(F)cc2Cl)c1C(=O)N1CCCC1	0.7	·	-0.3	0.68	-12	4	9	-1.0	i
O=C1c2[nH]nc(-c3ccccc3O)c2C(c2cccc(Cl)c2)N1CC1CCCO1 (stereo not drawn)	-1.8	7%	·	0.69	18	·	·	·	·
CCSC(=S)Nc1c(C)n(C)n(-c2ccccc2)c1=O	-1.2	-4%	-0.4	0.74	-7	10	15	0.5	i
Cc1ccc(-c2nn(-c3ccccc3)cc2/C=C(\C#N)C(=O)NCc2ccccc2)cc1	0.0	-12%	·	0.69	-2	·	·	·	·
O=C(CSc1nnc2ccccn12)Nc1ccc(S(=O)(=O)N2CCOCC2)cc1	2.8	2%	-1.3	0.7	3	18	1	-0.4	i
CCn1cc(C(=O)N2CCc3ccccc32)c(=O)c2cc(S(=O)(=O)N3CCOCC3)ccc21	2.1	1%	·	0.67	·	·	·	·	·
CCC(C)NS(=O)(=O)c1cc2c3c(c1)CCN3C(=O)CC2 (stereo not drawn)	1.1	·	-0.8	0.69	-1	1	-6	-2.4	i
COc1ccc(CCN(Cc2nc3ccccc3c(=O)[nH]2)C(=O)c2ccco2)cc1	-0.4	-4%	·	0.63	0	·	·	·	·
Cc1ccccc1SC1CCN(C(=O)C2CCC(=O)N(C3CC3)C2)CC1 (stereo not drawn)	-0.7	2%	-0.1	0.7	-11	-4	-6	0.3	i
C[C@H]1CN([C@@H](C)CO)C(=O)c2cc(NC(=O)CCC(F)(F)F)ccc2O[C@H]1CN(C)C(=O)Nc1ccc(C(F)(F)F)cc1	·	·	-1.7	·	·	-6	-18	-1.7	i
CC(C)(Cc1ccccc1)/[N+]([O-])=C\c1ccccc1	-2.9	·	2.4	·	·	3	2	-7.9	i
Cn1cnc(CCNC(=O)C[C@@H]2CC[C@H]3[C@@H](COC[C@@H](O)CN3C(=O)Nc3ccc(F)cc3)O2)c1	·	·	-1.5	·	·	2	3	-1.6	i
C[C@H](CO)N1C[C@H](C)[C@H](CN(C)C(=O)Nc2ccccc2)Oc2ncc(C#Cc3ccc(F)cc3)cc2C1=O	·	·	-12	·	·	-3	-43	31	i
Cc1ccc(NS(=O)(=O)c2ccc3c(c2)C(=O)c2ccccc2C3=O)c(C)c1	-0.9	0%	·	0.65	-29	·	·	·	·
Additional compounds
SMILES	HNF4A DNA FP	Vif A3G	MLL AF4-AF9 inh	E coli growth	ALR inh	Ecoli rRNA inh	Ecoli rRNA inh OD600	Ecoli rRNA inh RFP	FGF22 binding
O=C1CSC(c2ccccc2)N1CC12CC3CC(CC(O)(C3)C1)C2 (stereo not drawn)	-0.7	3%	·	0.65	0	·	·	·	·
CN(C)Cc1cn(CC[C@@H]2CC[C@@H](NC(=O)Nc3ccc4c(c3)OCO4)[C@H](CO)O2)nn1	·	·	0.9	·	·	-2	1	-1.3	i
CCOC(=O)/C(C#N)=C/c1cc2ccccc2nc1N1CCOCC1	-0.5	·	·	0.68	-1	·	·	·	·
COCCN(CCOC)c1nc(-c2ccc(C)cc2)nc2ccccc12	4.0	·	-4.8	0.67	22	-23	-31	-18	i
CCS(=O)(=O)NCc1csc(C)n1	-3.5	24%	·	0.76	-17	·	·	·	·
CCOC(Cn1c(CCCO)nc2ccccc21)OCC	-1.5	-1%	·	0.62	-19	·	·	·	·
O=C(C[C@@H]1C/C=C\C[C@@H](NC(=O)OCC2c3ccccc3-c3ccccc32)C(=O)OC[C@@H](Cc2ccccc2)NC1=O)NCCO	1.7	·	0.5	·	-2	12	7	3.8	i
CC(C)=NNc1nc2c(c(=O)n(C)c(=O)n2C)n1CCc1ccccc1	-0.5	·	7.7	0.72	-69	10	1	3.8	i

Complete entries, looked up by structure. Order of screens: HNF4A DNA FP | Vif A3G | MLL AF4-AF9 inh | E coli growth | ALR inh | Ecoli rRNA inh | Ecoli rRNA inh OD600 | Ecoli rRNA inh RFP | FGF22 binding
`C=CCOc1nc2c(c(=O)n(C)c(=O)n2C)n1Cc1ccc(Cl)cc1Cl` as listed: -4.1 | 13% | -33 | 0.74 | -1 | 15 | 9 | -0.4 | i
`O=C(CSc1nnc2ccccn12)Nc1ccc(S(=O)(=O)N2CCOCC2)cc1` as listed: 2.8 | 2% | -1.3 | 0.7 | 3 | 18 | 1 | -0.4 | i
